# Screens from PubChem.
# 2A firefly: FMDV 2A StopGo reporter, firefly signal; HEK cells with a luciferase reporter of 2A StopGo recoding; AID 1745856; actives 0.23% (n = 120,000); Potency, µM (series often up to 57.5 µM), inactives show at the top dose signal change, negative = less light; active = well fitted falling curve with a large enough effect; inconclusive = small, poorly fitted or top-dose-only effect; inactive = no such curve, though single readings can be large or run the other way; further: nearly all actives have a fitted effect of over 60% in size; overnight with compound
# StopGo RLuc: FMDV 2A StopGo reporter, Renilla signal; Potency, µM (doses to about 57.5 µM), without a hit: top-dose signal change, negative = less light; actives 0.32% (n = 120,000); HEK cells with a luciferase reporter of 2A StopGo recoding; active means well fitted falling curve with a large enough effect; inconclusive means small, poorly fitted or top-dose-only effect; inactive means no such curve, though single readings can be large or run the other way; further: nearly all actives have a fitted effect of over 55% in size; overnight with compound
# * marks the source's active call; other numbers are inactive results; ? = inconclusive; & = joins results of further samples; [ ] = another dose, or the depositor's remark. On the % scale 0 is the no-effect control and ±100 the full control effect; potency means the concentration at half of the fitted maximal effect. Some of the compounds tested, so the mix of outcomes need not match the whole.
entry | canonical_smiles | 2A firefly | StopGo RLuc
1 | CCCn1c(C)cc(C(=O)CC#N)c1C | 55%[activator] | 10%
2 | Fc1ccc(-c2nnc(CCl)o2)cc1 | 26% | -18%
3 | NC(Cc1ccc(Cl)cc1)C(=O)O (stereo not given) | 10% | 12%
4 | COC(=O)c1cc2c(Cl)c(Cl)ccc2[nH]1 | 16% | 12%
5 | Cc1cccc(C(=O)NCc2nnc(SCC(=O)Nc3ccccc3F)n2-c2ccccc2)c1 | -21% | -12%
6 | CCOc1ccc(CN2C(=O)c3ccccc3Sc3ccc(C(=O)N4CCC5(CC4)OCCO5)cc32)cc1 | -17% | -9%
7 | CC1CCN(C(=O)CSc2nc(-c3ccccc3)no2)CC1 | 100%[activator] | 2%
8 | CC(C)(C)c1cc(NC(=O)Nc2ccc(Br)cc2Cl)no1 | 120%[activator] | 9%
9 | Cc1ccc(C2Cc3ccccc3N2)c(C)c1 (stereo not given) | 51%[activator] | 23%
10 | COc1ccccc1C(=O)Nc1cccc(-c2nc3ccccc3o2)c1C | -6% | 0%
11 | COc1ccc(NC(=O)c2cc(C(C)=O)n3ccccc23)cc1Cl | 67%[activator] | 1%
12 | O=S(=O)(NC(c1cccs1)C(Cl)(Cl)Cl)c1ccccc1 (stereo not given) | 7% | 52%[activator]
13 | CC(C)(C)NC(NC(=O)c1ccco1)C(Cl)(Cl)Cl (stereo not given) | 13% | 10%
14 | C/C=C/CSc1nc2c(c(=O)n(C)c(=O)n2C)n1Cc1ccc(Cl)cc1 | -4% | -7%
15 | N#Cc1ccc(S(=O)(=O)N2CCN(C(=O)c3cn[nH]c3-c3ccccc3)CC2)cc1 | 7% | -12%
16 | Cc1cc(C)c2c(c1)c(C)cc1nnc(SCC(=O)c3ccccc3)n12 | -1% | 10%
17 | Cc1ccc2c(CSc3nnnn3C(C)(C)C)cc(=O)oc2c1 | 181%[activator] | 100%[activator]
18 | Cc1ccccc1C(=O)Nc1nnc(S(=O)(=O)N(C)Cc2ccc(Cl)cc2)s1 | -5% | 22%
19 | Cc1ccc2oc(C(=O)NCC(c3ccc(C)o3)N3CCCC3)cc(=O)c2c1 (stereo not given) | -19% | -22%
20 | CCOC(=O)/C=C/C(=O)OC(C)C(=O)Nc1ccc(C(N)=O)cc1 (stereo not given) | 46%[activator] | 52%[activator]

# A stretch from the list above, for reference:
entry | canonical_smiles | 2A firefly | StopGo RLuc
1 | CCCn1c(C)cc(C(=O)CC#N)c1C | 55%[activator] | 10%
2 | Fc1ccc(-c2nnc(CCl)o2)cc1 | 26% | -18%
3 | NC(Cc1ccc(Cl)cc1)C(=O)O (stereo not given) | 10% | 12%

# Among those listed so far, these have an aryl methoxy group.
entry | canonical_smiles | 2A firefly | StopGo RLuc
10 | COc1ccccc1C(=O)Nc1cccc(-c2nc3ccccc3o2)c1C | -6% | 0%
11 | COc1ccc(NC(=O)c2cc(C(C)=O)n3ccccc23)cc1Cl | 67%[activator] | 1%

# Following part.
entry | canonical_smiles | 2A firefly | StopGo RLuc
21 | O=C(C1CCC(Cn2c(=O)c3sccc3n(Cc3ccccc3)c2=O)CC1)N1CCCCC1 (stereo not given) | 17% | 9%
22 | COC(=O)c1ccc(CNC(=O)C2Cc3ccc(C)cc3S2)cc1 (stereo not given) | -3% | -15%
23 | Cc1cc(O)c(C(c2ccccc2)N2CCN(C)CC2)c(=O)n1Cc1ccco1 (stereo not given) | -4% | -6%
24 | CCOC(=O)c1ccc(CN(Cc2ccc(F)cc2)S(=O)(=O)c2ccc(F)c(C(=O)Nc3ccccc3C(F)(F)F)c2)cc1 | -24% | -14%
25 | O=C(CCc1ccc(Cl)s1)NC1CCN(CC(F)F)CC1 | 10% | 4%
26 | CN(C(=O)c1nn(C)c2c1COc1ccccc1-2)c1cccc(C(F)(F)F)c1 | -2% | 1%
27 | COc1ccc(CN2C(=O)c3oc4ccccc4c(=O)c3C2c2ccc(O)cc2)cc1 (stereo not given) | -14% | ?
28 | Cc1ccccc1C(=O)N1CCN(c2oc(-c3ccco3)nc2C#N)CC1 | -1% | 0%
29 | CC(C)Cn1cnc2c1c(=O)n(CC(O)COc1ccc3ccccc3c1)c(=O)n2CC(C)C (stereo not given) | -14% | -12%
30 | CCCNC(=O)NC(C)c1ccccn1 (stereo not given) | 3% | -13%
31 | COc1cc(C(=O)Oc2ccccc2C#N)cc(Cl)c1OC(C)C | 16% | -13%[1.06 µM]
32 | Cc1ccc(NC(=O)c2nn(Cc3ccccc3)c(=O)c3ccccc23)cc1S(=O)(=O)N(C)C | 49%[activator] | 45%[activator]
33 | C/C(N)=C(/C#N)C(NC(=O)c1ccco1)(C(F)(F)F)C(F)(F)F | -8% | 16%
34 | Cc1cccc(-c2nnc(SCCC(=O)O)o2)c1 | 1µM* | -9%
35 | C=CCNC(=O)NC(=O)CN1CCN(c2oc(C3CC3)nc2C#N)CC1 | 18% | 22%
36 | Cc1cc(Cl)c(C)c(S(=O)(=O)N2CCCC2c2nnc3ccccn23)c1Cl (stereo not given) | -6% | 10%
37 | Cn1nc(C(=O)NCCc2ccc(Cl)cc2)c2c1-c1ccccc1SC2 | -4% | 47%[activator]
38 | FC(F)(F)c1ccccc1N/N=C1/CCc2ccccc21 | 104%[activator] | -9%
39 | COCCCn1c(=N)c(C(=O)NC2CCCCC2)cc2c(=O)n3cc(C)ccc3nc21 | -16% | 0%
40 | COC(=O)c1ccc(OC(=O)COc2ccc3oc4c(c3c2)CCCC4)c(OC)c1 | 11% | -4%[1.06 µM]

# A different layout for part of the listing above.
31: COc1cc(C(=O)Oc2ccccc2C#N)cc(Cl)c1OC(C)C
32: Cc1ccc(NC(=O)c2nn(Cc3ccccc3)c(=O)c3ccccc23)cc1S(=O)(=O)N(C)C
33: C/C(N)=C(/C#N)C(NC(=O)c1ccco1)(C(F)(F)F)C(F)(F)F
34: Cc1cccc(-c2nnc(SCCC(=O)O)o2)c1
35: C=CCNC(=O)NC(=O)CN1CCN(c2oc(C3CC3)nc2C#N)CC1
36: Cc1cc(Cl)c(C)c(S(=O)(=O)N2CCCC2c2nnc3ccccn23)c1Cl (stereo not given)
Assay by compound	31	32	33	34	35	36
2A firefly	16%	49%[activator]	-8%	1µM*	18%	-6%
StopGo RLuc	-13%[1.06 µM]	45%[activator]	16%	-9%	22%	10%

# Next records follow.
entry | canonical_smiles | 2A firefly | StopGo RLuc
41 | Cn1c(=O)c2c(nc(NCCO)n2Cc2ccccc2F)n(C)c1=O | 13µM* | 13µM*
42 | CCN(C(=O)c1nn(C)c2c1CSc1ccccc1-2)c1cccc(C)c1 | 11% | 23%
43 | COc1ccccc1CCNC(=O)c1ccc(NC(=O)N2CC(C)Sc3ccccc32)cc1 (stereo not given) | 13% | -1%
44 | COc1ccc(NC(=O)CCc2ncc(-c3ccccc3)o2)c(OC)c1 | 5% | -3%
45 | CC(C)N(Cc1nc(-c2ccccc2)no1)C(=O)Cc1ccc(-c2ccccc2)cc1 | ? | -20%
46 | NCCOc1ccc(C(F)(F)F)cc1 | 11% | 6%
47 | COc1cccc(C2C=C(c3ccc(C)cc3)Nc3ncnn32)c1 (stereo not given) | 19% | 6%
48 | O=C(Nc1cccc(Cl)c1)c1cc2c(=O)[nH]c3ccccc3c2s1 | 84%[activator] | -3%
49 | O=C(Cn1cc(S(=O)(=O)Cc2ccccc2Cl)c2ccccc21)NCc1ccccc1Cl | 19% | 17%
50 | Clc1cc(CSc2ncnc3ccccc23)cc2c1OCCCO2 | 62%[activator] | -13%[1.06 µM]
51 | COc1ccc(-n2ccnc2SCC(=O)Nc2nc(C)cs2)c(OC)c1 | -2% | -2%
52 | COc1ccc(C(=O)NC2(C(F)(F)F)C(=O)Nc3c2c(=O)[nH]c(=O)n3CCc2ccc(OC)c(OC)c2)cc1 (stereo not given) | -11% | -10%
53 | CCc1ccc(NC(=O)CCc2nnc3n(C)c(=O)c4sccc4n23)cc1 | -22% | -14%
54 | O=C(COc1cccc(-c2noc(-c3ccccc3F)n2)c1)N1CCCC1 | 75%[activator] | 34%[activator]
55 | CCc1nnc(NC(=O)c2cc(=O)c3cc(C)ccc3o2)s1 | 6% | -8%
56 | CCS(=O)(=O)NC(CCSC)C(=O)O (stereo not given) | 24% | 15%
57 | CCc1ccc2c(CN3CCC4(CC3)OCCO4)cc(=O)oc2c1 | 215%[activator] | 29%
58 | Cc1ccc(NC(=O)CCc2c[nH]c3ccccc23)cc1F | 222%[activator] | 35%[activator]
59 | C#CCCN([C@@H](CC(C)C)C(=O)OC)S(=O)(=O)c1ccccc1Br | -14% | 17%
60 | CCCc1nnc2sc(C(C)(C)Oc3ccc(Cl)cc3)nn12 | -29% | -26%
61 | COc1ccc(OCc2nc(-c3ccc(OC)c(OC)c3)no2)cc1 | 3% | -4%
62 | O=C(/C=C/Nc1ccccc1C(F)(F)F)c1ccc(Br)cc1 | 0% | -1%
63 | O=c1ccc(N2CCN(S(=O)(=O)c3cccc4nsnc34)CC2)nn1-c1ccc(F)cc1 | -17% | -16%
64 | COc1cccc(Oc2coc3cc(OC(=O)c4ccco4)ccc3c2=O)c1 | 64%[activator] | -2%
65 | CCOc1cccc2sc(NC(=O)CS(=O)(=O)c3ccc(C)cc3)nc12 | -21% | -12%
66 | Cc1cc(C(=O)CSc2nnc(COc3ccc(Cl)cc3)o2)c(C)n1C1CC1 | -17% | ?
67 | CCN(CC)CCCNC(=O)c1ccc2c(c1)sc1nc(-c3ccc(C)cc3)cn12 | 31%[activator] | -7%
68 | O=C(O)c1ccc(COc2ccc3ccccc3c2C=Nc2ccc(N3CCOCC3)cc2)cc1 | 0% | 11%
69 | O=C(Cc1ccccc1)N(Cc1cccc2[nH]ccc12)C1CC1 | 20% | 174%[activator]
70 | Cc1ccccc1OCC(=O)Nc1cccc2cccnc12 | 6% | -10%
71 | NC(N)=N/N=C/c1ccc(Br)cc1 | 23% | 19%
72 | COc1ccc(CCN2C(=O)N(c3ccc(F)cc3)C(=O)C2CC(=O)Nc2ccc(F)c(F)c2)cc1 (stereo not given) | 18% | 121%[activator]
73 | Cc1ccc(NC(=O)c2cnn3cccnc23)cc1C | 3% | -12%
74 | Cc1cc(C)n(-c2nc3c(c(=O)n(CC(N)=O)c(=O)n3C)n2Cc2ccc(F)cc2)n1 | -9% | -12%
75 | CC(NC(=O)c1cnccn1)c1ccccc1 (stereo not given) | -8% | -1%
76 | Cc1cccc(-n2ccnc2SCC(=O)Nc2ccc(F)cc2F)c1C | 17% | 133%[activator]
77 | Cc1ccc(C(=O)COC(=O)c2cc(-c3ccccc3)nc3ccccc23)cc1C | 15% | 6%
78 | COc1ccc(-c2nc3c(c(SCC(=O)Nc4ccccc4OC)n2)Cc2cccc(C)c2O3)cc1 | -15% | -9%
79 | CCN1CCN(c2c(S(=O)(=O)c3ccc(Cl)cc3)cnc3ccccc23)CC1 | -6% | -1%
80 | COc1ccc(-c2nc3cc(C)ccn3c2NC(=O)c2ccc(C)c(C)c2)cc1 | 10% | 1%
81 | O=C1N(Cc2ccc(Cl)cc2)CCCN1c1cccc(C(=O)N2CCc3ccccc32)c1 | ? | ?
82 | O=C(Cn1c(=O)c2sccc2n(CC(=O)Nc2ccc(Cl)cc2Cl)c1=O)NCCc1ccccc1 | 1% | 4%
83 | Cc1ccccc1Cn1c(-c2cccs2)nc2ccccc21 | 0% | 50%[activator]
84 | Cc1ccc(C)c(N2CCN(C(=O)C3CCCN(S(=O)(=O)c4cccc5nonc45)C3)CC2)c1 (stereo not given) | -11% | -5%
85 | Cc1ccc(S(=O)(=O)N2CCN(C(=O)c3cc4ccccc4oc3=O)CC2)cc1 | 162%[activator] | -6%
86 | Cn1nc(CC(=O)N2CCOCC2)c2ccccc2c1=O | -7% | -7%
87 | CCc1cccc(C)c1NC(=O)CCS(=O)(=O)c1cc(Br)cc2c1N(C(=O)C1CC1)CC2 | 0% | 0%
88 | CCOC(=O)c1c(NC(=O)C2c3ccccc3Oc3ccccc32)sc(C)c1C | -19% | -12%
89 | Cc1nnc2c3cnn(-c4ccccc4)c3ncn12 | 12% | -3%
90 | CCCCC(=O)Nc1cc(C)c(O)c(-c2nc3ncccc3o2)c1 | -9% | 7%
91 | O=C(C1=C(O)C(=O)N(c2nncs2)C1c1ccc(F)cc1)c1cccs1 (stereo not given) | 67%[activator] | 63%[activator]
92 | CCOCCc1nn2c(=O)cc(COC(=O)Cc3ccccc3)nc2s1 | -13% | 12%
93 | CC(C)C(=O)NCC(c1ccc2c(c1)OCO2)N1CCN(c2ccccc2F)CC1 (stereo not given) | 18% | 5%
94 | COc1ccc(C2CC(=O)c3cnc4c(-c5ccccc5)c(C)nn4c3C2)cc1OC (stereo not given) | -23%&-9% | -21%&-7%
95 | O=C(Nc1cccc(C(=O)OCc2cc(=O)n3c4c(sc3n2)CCCC4)c1)c1ccccc1 | -16% | -13%
96 | Cc1cc(C)c2c(=O)cc(C(=O)Nc3nc4ccc(F)cc4s3)oc2c1 | -4% | -3%
97 | COc1ccccc1C1C=C(C(=O)O)Nc2c(C(=O)Nc3ccc(C)cc3)cnn21 (stereo not given) | 0% | 46%[activator]
98 | O=C(CSc1nc2ccccc2o1)N1CCN(CC(=O)N2CCCC2)CC1 | -13% | -20%
99 | COc1ccc(NC(=O)COCc2cc(-c3cccs3)on2)cc1 | 56%[activator] | 53%[activator]
100 | COc1ccc(CCNCc2sccc2C)cc1 | 0% | 17%

# Further compounds follow:
entry | canonical_smiles | 2A firefly | StopGo RLuc
101 | Cc1ccc(C(C)NC(=O)c2cccnc2)c(C)c1 (stereo not given) | 3% | -12%
102 | Cc1ccccc1C(=O)Nc1sc2c(c1C(=O)N1CCN(C)CC1)CCCC2 | -6% | 124%[activator]
103 | CC(C)CCNc1sc(S(C)(=O)=O)nc1S(=O)(=O)c1ccc(Cl)cc1 | -2% | 161%[activator]
104 | O=C(CC(=O)c1ccccc1F)c1ccccc1F | 151%[activator] | 185%[activator]
105 | COc1cc2c(cc1OC)C(c1cc(OC)c(O)c(OC)c1)CC(=O)N2 (stereo not given) | 6% | 64%[activator]
